# Mtb bLac sens – beta-lactam sensitization of Mtb H37Rv; M. tuberculosis H37Rv growth with meropenem, percent inhibition; hits of this screen are not shown here; inhibition, % at 25 µM; actives 0.27% (n = 330,000);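 active = about 74% or more and at least 40 points above the plate without the antibiotic, then above 30% in a dose series; inconclusive = first-round hits that could not be retested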;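 also: growth measured after seven days incubation then overnight dye step; 0% = bacteria only wells and 100% = bacteria with antibiotic; twin plates without the antibiotic show which effects depend on it; some results filed as inactive read as strong as hits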
# Mtb H37Rv – M. tuberculosis H37Rv growth inhibitors, H37Rv strain (AID 1626) | M. tuberculosis H37Rv growth inhibition; higher % means a stronger effect | inhibition, % at 10 µM, or IC50 in µM where a hit was titrated | actives 0.95% (n = 220,000);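 active = confirmed in a dose series; inconclusive = inhibition above 80% but not taken into the dose series; inactive = below 80% or under 30% at every dose of the series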;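 also: bacteria incubated seven days before Alamar blue readout; 0% = bacteria only wells and 100% = bacteria with antibiotic wells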
# Arbovirus inh – blocks arbovirus infection; AID 1251; actives 0.37% (n = 200,000); arbovirus infection cell-based antiviral screen; inhibition, % at 10 µM;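 active = inhibition from about 30%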;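 also: bluetongue infection of BSR cells; cell survival read as ATP light after 72 h; 0% = infected wells without compound and 100% = uninfected wells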
# YopH inh – blocks Yersinia enterocolitica YopH tyrosine phosphatase; actives 0.16% (n = 140,000); AID 898; fluorescence Ex485/Em525; inhibition, %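 (about 10 µM by stock and volumes)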;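 active = inhibition of 50% or more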;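 also: controls were vehicle for no effect and minimum signal wells for full effect; inactives centre near -20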
# RecA splice inh – Mtb RecA intein splicing inhibition. cell-free RecA intein splicing, fluorescence. inhibition, %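 (about 9 µM by stock and volumes)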. actives 0.75% (n = 290,000). AID 2221; in the data active = inhibition above about 30%; inconclusive = no clear call, values can overlap the other calls;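 also: 0% = vehicle wells and 100% = reference inhibitor control wells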
# Target sequence (P9WHJ3 whole entry, looked up, canonical isoform): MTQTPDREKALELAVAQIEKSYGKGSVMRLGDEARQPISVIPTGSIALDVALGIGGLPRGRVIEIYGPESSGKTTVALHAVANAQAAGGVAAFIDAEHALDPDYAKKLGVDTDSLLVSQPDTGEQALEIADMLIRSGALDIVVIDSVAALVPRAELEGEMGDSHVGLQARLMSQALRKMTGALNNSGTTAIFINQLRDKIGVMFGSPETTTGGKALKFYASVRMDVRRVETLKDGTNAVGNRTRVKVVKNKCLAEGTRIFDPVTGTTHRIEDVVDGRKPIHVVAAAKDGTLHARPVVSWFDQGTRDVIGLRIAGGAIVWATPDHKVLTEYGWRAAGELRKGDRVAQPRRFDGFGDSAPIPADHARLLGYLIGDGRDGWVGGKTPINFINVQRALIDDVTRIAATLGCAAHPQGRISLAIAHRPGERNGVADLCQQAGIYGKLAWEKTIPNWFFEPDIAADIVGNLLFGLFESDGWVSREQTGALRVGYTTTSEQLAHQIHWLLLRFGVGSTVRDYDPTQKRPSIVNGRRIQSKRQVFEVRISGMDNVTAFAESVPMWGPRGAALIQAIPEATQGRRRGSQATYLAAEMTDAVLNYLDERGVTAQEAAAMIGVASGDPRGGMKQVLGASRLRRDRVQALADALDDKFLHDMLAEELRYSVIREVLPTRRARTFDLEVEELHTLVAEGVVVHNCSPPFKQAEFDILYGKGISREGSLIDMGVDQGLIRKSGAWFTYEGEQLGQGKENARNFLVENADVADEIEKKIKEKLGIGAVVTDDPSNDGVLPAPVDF
# Arbovirus inh repeat – recorded beside Arbovirus inh, whose call it bears; inhibition, %; measured here: 10K subset replicate screen; many hits read low in the repeat;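 first of two repeat runs on a subset; 0% = infected and 100% = uninfected wells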
# An asterisk follows results filed as active; ? = inconclusive; . = no result given. A portion of the library (hit frequency here may not be typical).
SMILES,Mtb bLac sens,Mtb H37Rv,Arbovirus inh,YopH inh,RecA splice inh,others
O=C(c1ccco1)N1CCN(CC(O)Cn2c3ccccc3c3ccccc32)CC1 (stereo not drawn),13.5,1.4%,1.6,-16.4,2.7,
CCCCCn1c(=N)c(S(=O)(=O)c2ccc(Cl)cc2)cc2c(=O)n3cccc(C)c3nc21,0.2,.,.,.,-30.8,
CCCCCOc1ccc(/C=C/c2c([N+](=O)[O-])c(=O)n(C)c(=O)n2C)cc1,-1.3,.,.,.,10.6,
Cc1ccc(C(=O)COC(=O)CCC(=O)NC2CCCCC2)cc1[N+](=O)[O-],-13.9,-10.6%,-7.0,.,-1.4,
CCOC(=O)c1ccc(NCc2ccc3c(c2)OCO3)cc1,7.5,7.9%,0.6,-17.3,7.3,
O=C(O)C(CO)N=Cc1c(O)c2ccccc2oc1=O (stereo not drawn),-3.2,-4.3%,29.2,.,-0.7,
O=C(c1ccco1)N1CCCN(C(=O)c2ccco2)CC1,-6.3,-6.6%,0.1,-22.8,1.9,
O=c1[nH]c(SCc2ccc([N+](=O)[O-])cc2)nc2[nH]ncc12,-0.5,-6.2%,-25.4,.,0.2,
CCOc1ccc(CNc2nnnn2C)cc1OC,2.5,.,.,.,-1.5,
Cc1ccc2ncccc2c1[N+](=O)[O-],9.0,11.5%,-0.9,-34.3,-1.2,
Cc1cccc(NC(=O)Cn2nc(C(F)(F)F)cc2C2CC2)c1,-6.7,0.2%,-4.5,-29.7,1.8,
Cc1cnc(NC(=O)c2ccc(OCC3CCCO3)cc2)s1 (stereo not drawn),-1.0,.,2.0,.,-0.1,
CCOP(=S)(OCC)SCOC(=O)NCC(=O)OC,1.3,2.7%,4.6,-37.6,-2.7,
O=C(CN1CCN(Cc2ccccc2F)C1=O)NCc1ccco1,-4.1,-0.9%,-0.8,-24.5,-0.6,
CCCCCCCNC(=O)C1(CC2CC(c3cccc(Br)c3)=NO2)CCN(C(=O)CCCCCBr)CC1 (stereo not drawn),99.9,.,.,.,7.7,
CN(C)c1ccc(C2Nc3ccccc3C(=O)N2NS(=O)(=O)c2ccccc2)cc1 (stereo not drawn),-0.9,1.6%,7.2,.,-1.0,
Cc1nc(NC(C)C(=O)O)c2nc(C)oc2n1 (stereo not drawn),-5.4,-13.8%,0.3,-4.7,0.4,
CC1CCCCC1NC(=O)COCc1cc(-c2cccs2)on1 (stereo not drawn),?,.,.,.,1.0,
COc1ccccc1NC(=O)c1c(N=Cc2c(O)ccc3ccccc23)cnn1C,94.3,-8.1%,.,.,2.3,
CCN(CC)CCn1c2c(c(SCC(=O)Nc3ccc(C)c(F)c3)nc1=O)CCC2,-9.6,.,.,.,0.5,
CCn1c(=O)c([N+](=O)[O-])c(NCC(O)c2ccccc2)c2ccccc21 (stereo not drawn),-0.7,-3.7%,19.2,-20.0,-3.7,
Cc1nonc1OCCN1CCN(c2ccc([N+](=O)[O-])cc2)CC1,5.3,10.0%,.,.,-1.2,
O=C(COC(=O)c1ccco1)Nc1cccc(Br)c1,-4.3,-5.6%,1.3,-4.0,-0.6,
CNC(=O)CC1C(=O)N(c2ccc(F)cc2)C(=S)N1NC(=O)c1ccc(Br)cc1 (stereo not drawn),0.2,.,.,.,0.1,
Cc1ccnn2cc3c(=O)n(C)c(=O)n(C)c3c12,-4.0,.,4.2,-42.5,-5.1,
# (continued)
SMILES,Mtb bLac sens,Mtb H37Rv,Arbovirus inh,YopH inh,RecA splice inh,others
COc1ccc(S(=O)(=O)Nc2cccc(Cl)c2)cc1OC,-3.4,-3.1%,4.3,21.4,-0.6,
CC(=O)Nc1ccc(NC(=O)COC(=O)Cc2c[nH]c3ccccc23)cc1,12.7,3.6%,9.1,-27.6,-8.9,
CCc1ccc(-n2cc(-c3ccc([N+](=O)[O-])cc3)[nH]c2=S)cc1,2.7,-0.3%,-7.2,-29.2,-0.1,
Cc1cc(Cl)ccc1OCC(=O)NN1C(=O)C2C3C=CC(C3)C2C1=O (stereo not drawn),-10.7,6.5%,17.8,.,-0.3,
O=C(CN1C(=O)S/C(=C/c2ccccn2)C1=O)N1CCOCC1,-4.0,.,.,.,3.0,
C(=N\N1CCOCC1)/c1ccsc1,-1.8,.,.,.,-0.8,
CCCCSP1(=S)NCCCN1,-8.7,1.9%,5.5,-36.3,0.7,
O=C(N/N=C/c1ccccn1)c1cccc(NC(=O)c2ccc(Cl)cc2)c1,9.1,.,.,.,-12.6,
O=C(/C=C/c1ccc(Br)cc1)N1CCN(Cc2ccccc2)CC1,-6.3,.,.,.,-1.5,
CN(C)c1nc2c(c(=O)n(C)c(=O)n2C)n1CC(=O)c1cccs1,-6.9,.,.,.,0.6,
CCCc1cc(-c2n[nH]c(=S)n2CC)cs1,-1.6,-2.4%,0.8,.,3.5,
COC(=O)c1ccccc1S(=O)(=O)N1CCC(C(=O)OCc2cccc(OC)c2OC)CC1,-8.8,.,.,.,1.5,
CCOc1ccc2[nH]c(=O)c(CN(CCO)C(=O)c3ccc(Br)cc3)cc2c1,-13.1,3.7%,4.8,-38.1,0.6,
COCCN1C(=O)C(CC(=O)Nc2ccc(C(=O)O)cc2)SC1=Nc1ccccc1 (stereo not drawn),19.0,.,-3.7,-15.0,-0.7,Arbovirus inh repeat=2.3
NNC(=O)c1cc2c(N3CCC(Cc4ccccc4)CC3)ncnc2s1,-2.8,-0.8%,-17.2,.,-4.2,
Fc1ccc(COc2cccc3cccnc23)cc1,1.6,14.8%,-4.6,.,2.1,
COc1ccc(C(=O)NCCCCCCNC(=O)c2ccc(OC)cc2)cc1,?,.,.,.,-0.5,
O=C(Nn1c(=O)[nH]c2ccsc2c1=O)c1ccccc1,-19.6,-10.6%,1.9,-14.4,-0.6,
C=CCNc1ncnc2c1[nH]c1ccc(Cl)cc12,6.3,4.7%,-19.5,-9.1,-0.4,
Cc1ccc(CN2CCN(C(=O)CCN3C(=O)c4ccccc4C3=O)CC2)cc1,-6.8,-10.9%,8.7,-30.7,-1.3,
COc1cc(/C=N/NC(=O)c2ccncc2)ccc1OCC(=O)Nc1ccc(C)c(C)c1,96.6,.,.,.,-3.1,
Cc1cc(C)c(NC(=O)c2sc3nc4c(cc3c2N)C(=O)CC(C)(C)C4)c(C)c1,78.6,23.2%,4.9,11.3,10.9,
COc1ccc(-n2c(O)c(/C=N/Nc3nc(C)cc(C)n3)c3ccccc3c2=O)cc1OC,3.5,-4.1%,-20.3,.,1.0,
CC(C)=CCN1CCN(Cc2cnc(N3CCCC3)s2)CC1CCO (stereo not drawn),-5.5,-0.8%,-2.6,.,-6.9,
O=C(CS(=O)(=O)c1cn(CC(=O)N2CCOCC2)c2ccccc12)NCc1ccc(F)cc1,4.7,.,.,.,1.8,
# Later entries
SMILES,Mtb bLac sens,Mtb H37Rv,Arbovirus inh,YopH inh,RecA splice inh,others
CC(C)NC(=O)Cn1cc(C(=O)C(=O)N2CCOCC2)c2ccccc21,3.0,.,.,.,-2.5,
O=c1c(O)c(-c2cccs2)oc2ccc(Cl)cc12,99.0,9.53µM*,-6.1,-32.8,-51.8,
C=CCNC(=O)NC(=O)CN1C(=O)NC(c2ccccc2)(c2ccccc2)C1=O,2.4,.,.,.,0.8,
COc1cc(/C=C2/SC(=O)NC2=O)ccc1OC(=O)c1ccco1,6.6,.,.,.,12.7,
O=C(C/C=N/OCc1ccc(F)cc1Cl)c1cnc(-c2ccccc2)s1,-1.6,8.7%,7.8,-42.0,1.3,
COc1ccc(CN2C(=NC(=O)C3CCCCC3)SC3CS(=O)(=O)CC32)cc1 (stereo not drawn),-1.0,.,.,.,3.0,
CCCN1CCN(C(=S)Nc2ccc([N+](=O)[O-])cc2)CC1,-6.0,-5.9%,3.9,-36.4,3.2,
NS(=O)(=O)c1ccc(NC(=O)COC(=O)COc2ccccc2)cc1,3.3,-1.6%,3.4,.,-1.6,
Cc1c(Cl)c([N+](=O)[O-])nn1CC(=O)NC12CC3CC(CC(C3)C1)C2,0.4,8.8%,-7.7,-18.0,3.0,
c1ccc(NNC2=NCCS2)cc1,-10.4,.,.,.,9.0,
O=C(NCc1ccc(F)cc1)C1(S(=O)(=O)c2ccc(Cl)cc2)CC1,-4.0,.,.,.,-0.3,
O=C(C(=C1NCCN1)n1cncn1)c1ccccc1,1.6,-3.7%,7.5,-24.5,-1.3,
O=c1cc2c(nn1Cc1ccc(Cl)cc1Cl)-c1ccccc1CC2,52.4,30.4%,-41.4,8.8,2.0,
CC1CCN(C(=O)C2CCN(C(=O)c3ccc(C(C)(C)C)cc3)CC2)CC1,-1.9,.,.,.,-0.5,
COc1ccc(CCN2C(=O)CC(N3CCN(S(=O)(=O)c4ccccc4)CC3)C2=O)cc1OC (stereo not drawn),-4.4,-6.0%,-3.9,.,5.4,
CCc1noc(C)c1C(=O)N(C)CC(=O)Nc1ccc(OC)cc1,-12.4,.,.,.,-0.2,
COc1ccc(/C=C(\C#N)c2n[nH]c(Cn3cncn3)n2)cc1,-9.1,1.1%,6.7,.,-0.7,
O=C(CSc1ccccc1Cl)N1CCC(c2nc3ccccc3s2)CC1,92.5,5.8%,-10.1,-10.2,12.8,
Cc1[nH]n(-c2ccccc2)c(=O)c1C=Nc1cccc2cccnc12,96.4,55.6%,-9.4,-29.8,-9.2,
Cc1ccc2nc(N3C(=O)C(O)=C(C(=O)c4ccco4)C3c3ccc(C)o3)sc2c1 (stereo not drawn),0.1,.,.,.,9.1,
COc1ccc(OC)c(NC(=O)c2ccc3nc(-c4ccccc4)c(-c4ccccc4)nc3c2)c1,3.1,0.3%,-1.3,-20.6,3.2,
O=C(CNC(=O)c1ccc(F)cc1)N/N=C/c1cn[nH]c1-c1ccccc1,2.8,2.2%,-3.7,-31.3,-0.5,
COc1ccccc1N1CCN(C(=O)COc2ccc(Cl)cc2)CC1,-0.2,4.2%,8.2,-22.3,2.9,
Cc1ccccc1CN1CCN(CC(=O)NCCCN2CCN(c3ccc(F)cc3)CC2)C1=O,-10.0,-15.3%,-6.9,-53.1,-1.2,

# Of the compounds above, 10 contain an NH in an aromatic ring.
SMILES,Mtb bLac sens,Mtb H37Rv,Arbovirus inh,YopH inh,RecA splice inh,others
O=c1[nH]c(SCc2ccc([N+](=O)[O-])cc2)nc2[nH]ncc12,-0.5,-6.2%,-25.4,.,0.2,
CC(=O)Nc1ccc(NC(=O)COC(=O)Cc2c[nH]c3ccccc23)cc1,12.7,3.6%,9.1,-27.6,-8.9,
CCc1ccc(-n2cc(-c3ccc([N+](=O)[O-])cc3)[nH]c2=S)cc1,2.7,-0.3%,-7.2,-29.2,-0.1,
CCCc1cc(-c2n[nH]c(=S)n2CC)cs1,-1.6,-2.4%,0.8,.,3.5,
CCOc1ccc2[nH]c(=O)c(CN(CCO)C(=O)c3ccc(Br)cc3)cc2c1,-13.1,3.7%,4.8,-38.1,0.6,
O=C(Nn1c(=O)[nH]c2ccsc2c1=O)c1ccccc1,-19.6,-10.6%,1.9,-14.4,-0.6,
C=CCNc1ncnc2c1[nH]c1ccc(Cl)cc12,6.3,4.7%,-19.5,-9.1,-0.4,
COc1ccc(/C=C(\C#N)c2n[nH]c(Cn3cncn3)n2)cc1,-9.1,1.1%,6.7,.,-0.7,
Cc1[nH]n(-c2ccccc2)c(=O)c1C=Nc1cccc2cccnc12,96.4,55.6%,-9.4,-29.8,-9.2,
O=C(CNC(=O)c1ccc(F)cc1)N/N=C/c1cn[nH]c1-c1ccccc1,2.8,2.2%,-3.7,-31.3,-0.5,
